Tgondii IFNg: T. gondii growth inhibition under IFN-gamma; Toxoplasma gondii growth in IFN-gamma-treated host cells; hits give low values; reference of the scale not given here; activity change, negative = inhibition, %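 (about 20 µM by stock and volumes)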; 69,000 compounds, 3.8% hits;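 active means below -70%; inconclusive means fit judged invalid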;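 further: host cells are HeLa cells infected with Toxoplasma gondii; parasite growth read as luciferase light; one replicate is shown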
Numbers without * were called inactive; i = inactive; ? = inconclusive; & = joins results of further samples.

SMILES | Tgondii IFNg
Cc1nc(-c2ccc(F)cc2)sc1CCNS(=O)(=O)c1ccc2c(c1)OCCO2 | 51.0
Cn1cc(N2C(=O)CC3C2CCN3C(=O)CCC(=O)O)cn1 (stereo not drawn) | 146.2
O=C(c1ccn[nH]1)N1CCC2(CCCN2c2ncccn2)CC1 | 4.2
COc1ccc(-c2nnc(-c3nc(NC4CCS(=O)(=O)C4)c4ccccc4n3)o2)cc1 (stereo not drawn) | 227.2
CCN(C(=O)c1ccc(CNc2ccc(C)cc2)cc1)C1CC1 | 54.0
Cn1nnnc1SCCNCc1ccc(-c2cccc(C(F)(F)F)c2)o1 | 69.5
CCc1cc(Cn2nc(CC3CCNCC3)n(CC)c2=O)on1 | 4.6
COc1ccc(O)c(N)c1 | 35.9
Cn1cc(C(=O)N2C[C@H]3CN(Cc4cccc(F)c4)C(=O)[C@@H]3C2)cn1 | -10.9
CN(C)C(=O)N1CCc2ncnc(C3CCOC3)c2CC1 (stereo not drawn) | 2.0
Cc1ccccc1-c1noc(-c2nnn(Cc3nc(-c4cccc(Cl)c4)oc3C)c2C)n1 | 12.5
COc1ccc(NC(=O)N(C)C[C@H]2OCc3cnnn3CCCC(=O)N([C@@H](C)CO)C[C@H]2C)c(OC)c1 | i
Cc1ccc(NC(=O)CS(=O)CC(=O)NC23CC4CC(CC(C4)C2)C3)cc1 (stereo not drawn) | -68.6
O=C1CCCN1CC1CCCN(c2ncnc3c2CCNC3)C1 (stereo not drawn) | -2.7
CS(=O)(=O)N1CCC2(CC1)OCCN(c1ncccn1)c1ccccc12 | 2.6
CCCNC(=O)N(C)C[C@H]1Oc2cc(C#C[C@H](C)O)ccc2S(=O)(=O)N([C@H](C)CO)C[C@@H]1C | 27.7
Cc1ccc(C)c(C(=O)Nc2ccc(-c3nc(Cn4cc(C)cn4)c(C)o3)cc2)c1 | -37.1
Cc1cc(C)cc(C(=O)Nc2ccc(-c3nc(Cn4cccn4)c(C)o3)cc2)c1 | 13.9
COC(=O)c1cc(=O)n2c(-c3ccccc3)csc2n1 | 32.1
COc1cccc(C(C)N(C)C(=O)COc2cccnc2)c1 (stereo not drawn) | 18.0
C[C@H](CO)N1C[C@H](C)[C@@H](CN(C)Cc2ccc3cccnc3c2)OCc2cnnn2CCCC1=O | 203.2
O=C(C[C@H]1CC[C@H](NC(=O)Nc2ccc(C(F)(F)F)cc2)[C@@H](CO)O1)NCc1cccc(F)c1 | -52.0
CCn1ncc(-c2csc(NC(=O)c3oc4cc(OC)ccc4c3C)n2)c1C | 30.8
Cc1cccc(S(=O)(=O)N2CC[C@@H]3[C@H]2c2cc(Br)ccc2N(C)[C@H]3CO)c1 | 26.7
FC(F)(F)c1ccnc(Oc2ccc(CN3CCCC3)cc2Cl)c1 | -1.7
COCC(=O)N1CCC(C(=O)NCc2ccccc2-c2ccccc2)CC1 | 1.4
CC(=O)Nc1ccc2nc(CN(C)Cc3snnc3C)ccc2c1 | -1.0
COC(Cn1ccnc1-c1ccnc2ccccc12)c1cccs1 (stereo not drawn) | -5.1
C[C@@H]1CN([C@@H](C)CO)C(=O)c2ccccc2-c2ccccc2CO[C@H]1CN(C)Cc1ccccc1C(F)(F)F | -45.7
O=C1COC2(CCN(Cc3cccs3)CC2)CN1 | 0.4
CC(C)C(CNC(=O)c1cc(N2CCOCC2)nc2ccccc12)N1CCOCC1 (stereo not drawn) | -5.2
O=C(NCc1ccccn1)C1CCCN(C2CCN(C(=O)c3ccon3)CC2)C1 (stereo not drawn) | 0.7
C/C=C/c1ccc([C@H]2[C@@H](CO)N(c3nc(C)c(C)s3)[C@@H]2CNCC(C)C)cc1 | 11.8
Cn1ccnc1SCC(=O)N1CCC(n2cccc2)CC1 | -30.6
O=C(CN1C(=O)c2ccccc2C1=O)Nc1cccc([N+](=O)[O-])c1 | -36.2
Cc1ccc(NC(=O)N2CCC3(CC2)NC(=O)c2ccc(F)cc2N3C)cc1C | 2.5
Cc1ccc2c(c1)cc(S(=O)(=O)c1ccccc1)c(=O)n2CC(=O)N1CCCCC1 | -9.8
CC(C)NC(=O)N1CCN(CC2CC2)CC2(CNC(=O)C2)C1 (stereo not drawn) | -29.8
CCn1c(C2CCNCC2)nn(CC2CCCS(=O)(=O)C2)c1=O (stereo not drawn) | -49.8
CCCS(=O)(=O)Nc1ccc(F)c(C(=O)c2c[nH]c3ncc(-c4ccc(Cl)cc4)cc23)c1F | -78.6*
COc1ccc2[nH]cc(C(O)CN3CCN(S(=O)(=O)N4CCC(C)CC4)CC3)c2c1 (stereo not drawn) | 252.4
COc1ccc(NCc2nc3ccccc3n2C)cc1 | 110.7
COCC(=O)N1CCC(N(C)Cc2cccnc2)CC1C(=O)O (stereo not drawn) | 160.4
Cc1[nH]c2ccc(Cl)cc2c(=O)c1CN1CCCC1 | -42.4
Cc1csc(-c2ccc(Oc3ccc(Cl)cc3)nc2)n1 | 24.4
CN(C)C(=O)[C@H]1[C@H](CO)[C@H]2Cn3c(ccc(C4=CCCC4)c3=O)[C@@H]1N2S(=O)(=O)c1cn(C)cn1 | -3.4
COc1ccccc1NC(=O)N1CCCCN2[C@H](C1)[C@H](c1ccc(-c3cccc(C#N)c3)cc1)[C@@H]2CO | -14.1
O=C1CSCC(=O)N1c1ccc(Cl)cc1 | 22.3
Cc1nc(CNC(=O)CCc2c(C)nc(=O)[nH]c2C)cs1 | 232.4
CCCNC(=O)c1nc(Nc2ccc(C)cc2)c2ccccc2n1 | -54.7
CN(C)C(=O)N1CC2(CCOCC2)c2cc(NC(=O)C3CCC3)ccc21 | 6.8
O=C(C[C@@H]1CC[C@@H]2[C@H](COC[C@@H](O)CN2Cc2cc(F)cc(F)c2)O1)Nc1nccs1 | -50.1
COc1ccc(CCC(=O)N2CCC(O)(C(=O)O)CC2)cc1 | -16.7
N#CC1CN(Cc2cccs2)CN(Cc2cccs2)C1 | 10.8
O=C(CN1CCOCC1)NCc1cnn2ccccc12 | 9.8
CCn1c(CC2CCNCC2)nn(Cc2coc(C)n2)c1=O | 1.7
CO[C@@H]1CN(C)C(=O)c2cc(NC(=O)c3ccc4c(c3)OCO4)ccc2OC[C@@H](C)N(CCC(F)(F)F)C[C@H]1C | ?
COc1ccccc1NC(=O)N[C@H]1CC[C@H](CCNS(=O)(=O)c2ccc(Cl)cc2)O[C@H]1CO | -49.1
CCN1c2cc(Cl)ccc2C(=O)NC12CCN(C(=O)NCc1ccc(F)cc1)CC2 | 2.6
Cc1cnccc1N1CCCN(c2cc(N(C)C)ncn2)CC1 | -42.0

Part of the list above, with each value named.
N#CC1CN(Cc2cccs2)CN(Cc2cccs2)C1
  Tgondii IFNg = 10.8

O=C(CN1CCOCC1)NCc1cnn2ccccc12
  Tgondii IFNg = 9.8

(further entries)
SMILES | Tgondii IFNg
CS(=O)c1ccccc1O (stereo not drawn) | 33.5
COC(=O)c1cc2n(n1)CCN(C(=O)[C@@]13CC[C@@](C)(OC1=O)C3(C)C)C2 | -0.3
Cc1ccc(NC(=O)c2ccc3nnc4nc(C)n(C5CCCC5)c4c3c2)cn1 | -22.4
CN1CCC2(CCCN(C3CCC4(CCNCC4)CC3)C2)C1 (stereo not drawn) | -3.5
Cc1cc(C)n(C(=O)COc2ccc(Cl)cc2Cl)n1 | 28.8
Cc1cc(Cl)ccc1Nc1nnc(-c2ccccc2Cl)s1 | 27.6
COCCN1C(=O)N(Cc2ccccc2)C2(CCN(Cc3ccco3)CC2)C1=O | -4.8
COc1ccc(Nc2nc(-c3nnc(-c4cccc(Cl)c4)o3)nc3ccccc23)cc1 | 21.1
O=C(c1cscn1)N1CCOC2(CCN(c3ncccn3)CC2)C1 | -1.0
COC1CCCC(C(=O)N2CCC3(CC2)C(=O)Nc2ccc(-c4cccc(F)c4)cc23)C1 (stereo not drawn) | 10.6
CCS(=O)(=O)N1CC(C(=O)NCC2CC2)C2(CCOCC2)C1 (stereo not drawn) | 64.9
CC/C=C/CC(=O)Nc1cccc(C(=O)NC(C)(C)C)c1C | -14.7
Cn1nnc(-c2ccc(C(=O)Nc3ccccc3OCCn3cccn3)cc2)n1 | -12.7
CCCC(=O)Nc1ccc2c(c1)OC[C@@H](C)N(C(=O)c1cccnc1)C[C@@H](C)[C@H](OC)CN(C)C2=O | 62.9
Cc1cc(C)n(-c2ccnc(N3CCC(C(=O)NC4CCCC4)CC3)n2)n1 | 17.6
CC1(C)OC(=O)CC1C(=O)N1CCOCC1 (stereo not drawn) | -29.2
CC(C)(C)c1ccc(O)c(CN2CCC(CN)C2)c1 (stereo not drawn) | -60.3
COc1cc2cc(CN3CC(n4nc(C)cc4C)C3)c(=O)[nH]c2cc1OC | -28.7
Cc1c(-c2ccc(Cl)cc2)n[nH]c1C(=O)N1CCC2(CN(C)C(=O)O2)C1 (stereo not drawn) | -44.7
CC(C)N(CC1CCC(=O)N1)C(=O)c1cn(C)c2ccccc12 (stereo not drawn) | 3.4

Ordered by molecular weight (lowest first): 16 of the compounds above
SMILES | Tgondii IFNg
CS(=O)c1ccccc1O (stereo not drawn) | 33.5
CC1(C)OC(=O)CC1C(=O)N1CCOCC1 (stereo not drawn) | -29.2
CC(C)(C)c1ccc(O)c(CN2CCC(CN)C2)c1 (stereo not drawn) | -60.3
Cc1cc(C)n(C(=O)COc2ccc(Cl)cc2Cl)n1 | 28.8
CC/C=C/CC(=O)Nc1cccc(C(=O)NC(C)(C)C)c1C | -14.7
CC(C)N(CC1CCC(=O)N1)C(=O)c1cn(C)c2ccccc12 (stereo not drawn) | 3.4
CCS(=O)(=O)N1CC(C(=O)NCC2CC2)C2(CCOCC2)C1 (stereo not drawn) | 64.9
O=C(c1cscn1)N1CCOC2(CCN(c3ncccn3)CC2)C1 | -1.0
COC(=O)c1cc2n(n1)CCN(C(=O)[C@@]13CC[C@@](C)(OC1=O)C3(C)C)C2 | -0.3
COc1cc2cc(CN3CC(n4nc(C)cc4C)C3)c(=O)[nH]c2cc1OC | -28.7
Cc1c(-c2ccc(Cl)cc2)n[nH]c1C(=O)N1CCC2(CN(C)C(=O)O2)C1 (stereo not drawn) | -44.7
Cc1ccc(NC(=O)c2ccc3nnc4nc(C)n(C5CCCC5)c4c3c2)cn1 | -22.4
COCCN1C(=O)N(Cc2ccccc2)C2(CCN(Cc3ccco3)CC2)C1=O | -4.8
COc1ccc(Nc2nc(-c3nnc(-c4cccc(Cl)c4)o3)nc3ccccc23)cc1 | 21.1
COC1CCCC(C(=O)N2CCC3(CC2)C(=O)Nc2ccc(-c4cccc(F)c4)cc23)C1 (stereo not drawn) | 10.6
CCCC(=O)Nc1ccc2c(c1)OC[C@@H](C)N(C(=O)c1cccnc1)C[C@@H](C)[C@H](OC)CN(C)C2=O | 62.9

Following part.
SMILES | Tgondii IFNg
OC[C@H]1[C@H](c2ccc(-c3cccc(F)c3)cc2)[C@H]2CN(Cc3cncnc3)CCCCN21 | -50.7
COc1ccccc1CNC(=O)COc1ccc2c(c1)C(=O)CC1(CCN(C(C)=O)CC1)O2 | -18.2
CO[C@H]1CN(C)C(=O)c2ccc(NC(=O)C3CCC3)cc2OC[C@@H](C)N(Cc2ccccn2)C[C@H]1C | -39.9
COc1ccccc1NC(=S)Nc1ccccc1OC | 7.4
Cn1cc(CN2CC[C@@H]3[C@H]2CCN3Cc2cccs2)cn1 | -9.9
Cc1scc(C(=O)NCC2CCC(c3ncc(Cl)cc3-c3ccncc3)CC2)c1C (stereo not drawn) | -88.4*
CN1CCN(C(=O)C2CC23C(=O)N(C)c2ccccc23)CC1 (stereo not drawn) | -11.1
COCc1nn(CC2CC2)c2c1CN(Cc1cccs1)CC2 | -3.7
COc1ncc(-c2c(-c3ccccc3)ncn2CCn2nc(C)c(C)c2C)cn1 | 18.4
COc1ncccc1NS(=O)(=O)NCc1ccccc1 | 7.3
CC(=O)c1ccc(NC2CC(O)C(O)CO2)cc1 (stereo not drawn) | -32.8
NS(=O)(=O)c1ccc(-c2ccc(-c3ccn[nH]3)cc2)c(F)c1 | -56.1
C[C@H]1CC=CC[C@H](c2cccc(Cl)c2)NC(=O)[C@H](Cc2ccccc2)N(C)C(=O)c2ccccc2O1 (mixture of isomers) | -63.6
Cc1cccc(S(=O)(=O)N2C[C@H](O)COC[C@@H]3O[C@@H](CC(=O)Nc4ccccc4)CC[C@H]32)c1 | -44.4
COc1ccc(OC)c(-c2ncnc3sccc23)c1 | 3.3
CC(C)NC(=O)CSc1nnns1 | 5.8
COc1ccccc1CNC(=O)CNC(C)c1nncn1C (stereo not drawn) | -8.1
Fc1ccc(NCc2nnc(SCc3ccccc3Cl)n2CC2CCCO2)cc1 (stereo not drawn) | 0.0
C[C@@H]1CN([C@@H](C)CO)C(=O)c2cccc(NS(C)(=O)=O)c2O[C@H]1CN(C)Cc1ccc(-c2ccccc2)cc1 | -23.3
Cc1cc(C)n(C(C)CC(=O)N2CCCN(c3ccccn3)CC2)n1 (stereo not drawn) | -6.8
NC(=O)c1cc2c(s1)-c1cc(Cl)ccc1SC2 | -79.0*
COCC1CN(C(=O)c2cnc(C)cn2)Cc2ccnn2C1 (stereo not drawn) | -51.9
Cc1cc(C)c2c(=O)n(Cc3nc(-c4ccccc4)oc3C)c(=O)n(Cc3ccco3)c2n1 | 33.1
CC(C)N(CCC(N)=O)S(=O)(=O)NCc1ccccc1 | 12.6
COc1cccc(N(Cc2nc(-c3cccc(Cl)c3)oc2C)S(=O)(=O)c2ccccc2)c1 | -35.0
CO[C@H]1CN(C)C(=O)c2cc(NC(=O)C3CCOCC3)ccc2OC[C@@H](C)NC[C@@H]1C | -23.9
Cc1cnc(CNC(=O)c2ccccc2C2CCNC2)cn1 (stereo not drawn) | 63.2
C/C=C/c1ccc(C2[C@H]3CNC[C@@H]2N3Cc2ccc3c(c2)OCO3)cc1 (stereo partly drawn) | -28.5&-13.7
Cc1ccc(-c2nc(C(=O)N3CCCC(C)C3)c3n2CCCCC3)cc1 (stereo not drawn) | -95.9*
CNC(=O)CCN(C)Cc1cccc2c(C)c(C)[nH]c12 | 14.7
CC(C)c1ccc(NC(=O)c2c(O)c3ccccc3[nH]c2=O)cc1 | 277.7
CCS(=O)(=O)Nc1ccc2c(c1)C(=O)N(C)[C@H]1CC[C@@H](CC(=O)NCCCN3CCOCC3)O[C@H]1CO2 | 2.1
C/C=C/c1ccc([C@@H]2[C@H]3CN(CCC(F)(F)F)CCCCN3[C@H]2CO)cc1 | 24.4
CCCc1ccc(S(=O)(=O)N2CCC3(CC2)Nc2ccccc2-n2cccc23)cc1 | 44.0
CCCN1C(=O)CCc2cc(NC(=O)Cc3ccc(OC)cc3)ccc21 | 140.6

Source: PubChem (Broad Institute)

An excerpt, so the mix of outcomes need not match the whole.
